# Assay outcomes from PubChem BioAssay.
# UCH37 DUB inh = inhibitors of human UCH37 deubiquitinase, primary screen, biochemical, Ub-AMC cleavage, fluorescence | purified proteasome/UCH37 | inhibition, % (test concentration not listed) | hit rate 0.33% among 330,000 | Ubiquitin carboxyl-terminal hydrolase isozyme L5 (Homo sapiens), Q9Y5K5;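 active = mean of two replicates above 20%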;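 note: 0% = compound-free wells with enzyme and 100% = wells lacking proteasome; stock transfer was 100 nL into about 20 µL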
# Target sequence (Q9Y5K5 whole entry, looked up): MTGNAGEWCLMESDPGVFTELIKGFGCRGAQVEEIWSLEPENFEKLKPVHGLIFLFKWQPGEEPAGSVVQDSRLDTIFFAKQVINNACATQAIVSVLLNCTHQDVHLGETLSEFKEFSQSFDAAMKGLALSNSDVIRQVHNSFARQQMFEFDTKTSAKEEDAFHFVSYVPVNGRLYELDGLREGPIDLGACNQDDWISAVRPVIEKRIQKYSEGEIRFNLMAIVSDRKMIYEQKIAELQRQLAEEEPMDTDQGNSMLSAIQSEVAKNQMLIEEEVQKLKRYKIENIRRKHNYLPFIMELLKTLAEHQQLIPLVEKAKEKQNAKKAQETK
#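 Material: Human UCH37 enzyme supplied as purified proteasome complex | Schedule: 30 min compound-proteasome preincubation then 25 min substrate reaction, room temperature | Detection: AMC fluorescence from Ub-AMC cleavage, excitation 355 nm, emission 460 nm | Benchmarks: Wells without proteasome as full block, compound-free enzyme plus substrate as uninhibited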
# LANA-H2B inh = blockers of LANA interaction with H2A/H2B – biochemical, FP readout, HTS, primary screen. inhibition, % (test concentration not listed). hit rate 0.6% among 320,000. Protein LANA1 (Human herpesvirus 8 type P (isolate GK18)), Q9QR71. cell-free LANA-H2A/H2B peptide, fluorescence polarization; in the data active = inhibition mostly above about 10%, no sharp cut-off; inactive = mostly below about 6.7%;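 note: stock transfer was 7.5 nL into about 10 µL; 0% = median of vehicle wells and 100% = median of positive control wells; one replicate is shown; the record names a cut of 25% in any replicate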
# Beta2AR agonist = beta2AR agonists driving receptor internalization, primary screen, cell-based, FAP fluorogen, flow cytometry; response, % (test concentration not listed); Am2.2-beta2AR cells; reference of the scale not given here; hit rate 0.43% among 340,000;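 active = response above a set limit, near 3 SD of response in nonfluorescent compounds, cut at about 42% in these data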;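 note: stock transfer was 100 nL into about 11 µL; a reference agonist was the positive control; negative values mostly stem from fluorescent compounds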
# Ecoli growth = E. coli growth inhibition, primary screen, OD600; Escherichia coli growth, 23 h; stronger effect = lower value; OD600 absorbance (concentration not given with the values); hit rate 0.21% among 330,000; AID 1053175, 2014;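 active = OD600 absorbance below the run mean of sample wells minus 3.6 SD, in any replicate, cut at about 0.56 in these data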;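 note: stock transfer was 300 nL into about 60 µL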
# HNF4A DNA FP = change in binding of human HNF4A to DNA, primary screen, biochemical, fluorescence polarization, FITC-DNA; AID 1224865, 2016; 1 h; hit rate 0.3% among 360,000; activity change, % at 10 µM; Hepatocyte nuclear factor 4-alpha (Homo sapiens), P41235; in the data active = activity change above about 30%, passing the limit was not always enough;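 note: controls were the assay level and a saturating level of protein; the project sought stronger binding though the title names inhibitors; some compounds called inactive have numbers as strong as hits; positive values seem to mean higher polarization but the record does not say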
# Target sequence (P41235 whole entry, looked up): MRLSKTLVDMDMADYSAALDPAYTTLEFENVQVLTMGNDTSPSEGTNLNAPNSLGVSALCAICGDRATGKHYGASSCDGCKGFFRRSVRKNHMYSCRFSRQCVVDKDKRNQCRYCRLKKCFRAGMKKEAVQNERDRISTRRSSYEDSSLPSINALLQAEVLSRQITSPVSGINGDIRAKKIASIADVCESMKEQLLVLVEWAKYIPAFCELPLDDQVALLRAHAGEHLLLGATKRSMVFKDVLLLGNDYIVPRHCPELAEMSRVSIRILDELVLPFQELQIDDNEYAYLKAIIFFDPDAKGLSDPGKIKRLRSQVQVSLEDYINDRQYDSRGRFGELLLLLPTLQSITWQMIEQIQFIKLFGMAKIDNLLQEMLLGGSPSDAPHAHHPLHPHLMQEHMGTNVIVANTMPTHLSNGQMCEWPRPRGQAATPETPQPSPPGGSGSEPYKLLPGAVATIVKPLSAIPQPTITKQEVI
# Bfl-1 A1 inh = caspase 3/7 activation in MEF A1-2A-BIM cells, primary screen, A1 inhibitor project, cell-based, luminescence, HTS. Caspase-Glo 3/7 luminescence, 3 h; percent of clofoctol response, vehicle zero. caspase activation, % (no concentration beside the values). hit rate 0.066% among 330,000. AID 2462, 2010;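 active = over half of replicate activation scores above 10%, or exactly half above 10 with the replicate mean above 10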;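 note: wells of about 30 µL received 50 nL stock; many hits fall short of the cut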
# Vif TR-FRET = inhibitors of Vif binding to APOBEC3G peptide, primary screen, biochemical, TR-FRET, GST-Vif 1-94, biotin-A3G peptide, dose response retest (AID 1117319) | Virion infectivity factor (Human immunodeficiency virus type 1 group M subtype B (isolate … | TR-FRET GST-Vif / biotin-A3G peptide binding; higher % means a stronger effect; test concentration not given here; strong numbers were not always called active | inhibition, %; hits with a dose series show IC50 in µM | hit rate 0.57% among 260,000;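 active = above the screen mean plus three standard deviations and confirmed in dose response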;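 note: Vif residues 1-94 fused to GST binding biotinylated APOBEC3G peptide 110-148; 0% = full assay without inhibitor and 100% = GST in place of GST-Vif; retest series ran down from 100 µM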
# The depositor's hits bear a star; x = not tested or not shown.
SMILES,UCH37 DUB inh,LANA-H2B inh,Beta2AR agonist,Ecoli growth,HNF4A DNA FP,Bfl-1 A1 inh,Vif TR-FRET
COc1ccc(Cc2nnc(N)s2)cc1,-1.6,-4.8,-4.1,0.718,5.0,0.4,27.8%
CNCCOCC(O)CSc1ccccc1 (stereo not given),-2.1,0.7,3.4,0.663,-0.6,-0.3,3.1%
O=C(CCCC1=NS(=O)(=O)c2ccccc2N1)NCCc1ccc(Cl)cc1,-1.4,2.4,-1.1,0.709,2.6,1.3,x
Cc1cc(NC(=O)COc2cccnc2[N+](=O)[O-])no1,5.7,-2.8,4.9,0.702,0.3,-0.5,-6.2%
COc1ccc(N(CC(=O)Nc2ccccc2C)S(=O)(=O)c2ccccc2[N+](=O)[O-])c(OC)c1,1.1,-12.2,4.0,0.708,-1.2,-0.2,4.5%
CCOc1ccc(OC(=O)c2ccc3c(=O)n4c(nc3c2)CCC4)cc1,2.2,1.9,2.7,0.674,3.8,0.4,x
COc1ccc(C(=O)Nc2cc([N+](=O)[O-])ccc2N2CCCC2)cc1,9.7,-4.5,0.7,0.716,-2.2,-0.4,1.4%
C/C(=N/NC(=O)c1cc(C)[nH]n1)c1ccncc1,x,-3.2,5.9,x,3.5,-0.4,x
Cc1c(C(=O)N2CCN(S(=O)(=O)c3ccccc3F)CC2)oc2c(Cl)cccc12,2.7,3.7,5.3,0.678,-3.9,0.3,-6.2%
COC(=O)c1nc(NC(=O)c2ccccc2Cl)n[nH]1,7.7,2.1,4.9,0.718,4.2,0.2,0.5%
CS(=O)(=O)Nc1ccc(C(=O)N2CCN(c3ccccc3)CC2)cc1,4.5,0.2,4.2,0.704,1.2,0.3,-0.1%
CC(=O)Nc1nc(NC(=O)C(Cl)(Cl)Cl)n(-c2ccccc2)n1,0.7,-5.1,-6.4,0.691,-4.8,0.5,15.0%
CCCc1nnc(NC(=O)c2ccc(S(=O)(=O)N(C)c3ccccc3OC)cc2)s1,-2.4,-2.9,-0.4,0.695,5.2,-0.7,-2.3%
CC1(C)CC(=O)C2=C(C1)OC(N)=C(C#N)[C@@]21C(=O)N(CC(N)=O)c2ccccc21,0.2,-3.0,-2.5,0.73,1.5,-0.3,15.6%
O=S(=O)(NCc1ccccc1)c1ccc(-n2cccn2)cc1,4.8,2.7,-6.6,0.677,0.6,-1.5,x
Cc1cc(C(=O)O)ccc1-c1ccc(CO)o1,-64.5,6.7,3.0,0.588,-1.9,-0.6,x
CCN(CC)S(=O)(=O)c1cccc(C(=O)NC(C(=O)NNC(=O)c2ccccc2F)C(C)C)c1 (stereo not given),0.7,x,-8.3,0.656,-1.3,x,x
C=CCn1c(SCC(=O)Nc2nc3ccccc3s2)nc(O)c(CC)c1=O,7.4,3.0,3.7,0.661,1.8,0.1,-10.7%
CC1CCCC(NC(=O)COC(=O)[C@@H](NC(=O)c2ccco2)C(C)C)C1C (stereo not given in full),2.7,4.2,3.4,0.711,2.7,0.3,-6.0%
CN(CC(=O)NCC1CCCCC1)S(=O)(=O)c1ccc(F)cc1,-0.5,1.9,2.5,0.61,5.1,0.0,x
Cc1occc1C(=O)NNS(=O)(=O)c1ccc([N+](=O)[O-])cc1,3.7,5.2,1.7,0.61,-1.9,0.7,5.2%
COc1ccc(CCNC(=O)COC(=O)c2ccc(N3CCCC3=O)cc2)cc1OC,3.3,2.5,-7.5,0.704,2.8,0.0,4.9%
COc1ccc(NC(=O)N2CCCC2)cc1OC,1.0,7.4,2.2,0.687,-2.0,0.5,6.8%
Cc1cc(C(=O)N/N=C/c2c3ccccc3cc3ccccc23)n[nH]1,x,7.8,-5.2,x,3.0,0.1,x
NC(=O)c1ccc2c(=O)c(O)c(-c3cc(Cl)c(N)c(Cl)c3)[nH]c2c1,x,-0.3,-5.8,x,-5.7,0.0,x
O=C(NCCCN1CCOCC1)c1ccc(S(=O)(=O)Nc2ccccc2)cc1,2.0,2.0,3.5,0.574,-1.7,0.0,3.9%
CCOC(=O)c1c(C)nc2ncccn12,-66.7,2.3,-42.3,0.675,-2.4,-0.8,4.3%
COc1ccccc1N(C(=O)CNC(=O)c1ccco1)C(C(=O)NC1CCCC1)c1ccco1 (stereo not given),-0.6,-0.5,-2.9,0.685,3.2,-0.4,x
Cc1ccc([N+](=O)[O-])c(OCCCNCC(C)O)c1 (stereo not given),2.3,2.0,-4.2,0.694,1.9,0.1,12.0%
O=C/C(=C\Nc1ccc(Cl)cn1)c1nc2ccccc2o1,-0.4,6.0,-3.8,0.782,2.5,-0.5,-8.2%
COC(=O)/C(=C\c1ccc(O)cc1)c1nc2ccccc2[nH]1,1.1,-6.2,-2.3,0.667,0.4,-0.1,18.2%
CCCn1cnc2c(SCc3ccccc3F)nc(N)nc21,2.5,x,-9.8,0.672,-1.2,x,-8.8%
COc1ccc(N(CC(=O)NC2CC3CCC2C3)S(=O)(=O)c2ccccc2)cc1Cl (stereo not given),3.8,-17.9,-2.8,0.733,-5.5,1.6,x
O=C(CCC(=O)OCC(=O)c1cccc([N+](=O)[O-])c1)Nc1cccc(Cl)c1Cl,1.3,0.8,1.7,0.662,0.3,0.0,-2.7%
COc1ccccc1CNC(=O)c1ccc(-c2ccccc2Cl)o1,3.6,-0.6,15.2,0.697,6.1,0.0,-7.0%
Cn1c(SCC(=O)N(Cc2ccccc2)C(C)(C)C)nc2ccccc21,2.5,2.8,-14.8,0.74,-3.5,0.0,0.5%
CCOc1ccccc1N(CC(=O)Nc1ccc(S(=O)(=O)N2CCOCC2)cc1)S(=O)(=O)c1ccc(Cl)cc1,0.2,-4.3,9.3,0.672,-0.9,0.3,1.1%
CCCCN(C(=O)C(CCSC)N1C(=O)c2ccccc2C1=O)c1c(N)n(CCC)c(=O)[nH]c1=O (stereo not given),2.4,-5.6,-2.6,0.657,2.9,0.6,-1.0%
O=C(Cc1cccc2ccccc12)N/N=C/c1ccc(O)c([N+](=O)[O-])c1,x,3.7,-2.0,x,1.6,-0.7,6.7%
CN(C)c1ccc(C(=O)N2CCN(C(=O)C3CCCO3)CC2)cc1 (stereo not given),2.6,-4.0,5.4,0.674,0.8,-0.2,x
CCCC(=O)Nc1ccc(C(=O)Nc2nc(CC(=O)OCC)cs2)cc1,6.3,-0.8,0.1,0.651,0.9,0.3,-19.4%
Cn1/c(=N/N=C/c2ccccn2)sc2ccccc21,x,x,-14.5,x,3.2,x,-7.1%
CC(C)C[C@@H](CN1CCCC1CN1C(=S)NC[C@@H]1Cc1ccc(O)cc1)N1C[C@H](Cc2ccccc2)N(CC2CCCCCC2)C1=S (stereo not given in full),x,x,7.7,x,1.9,x,-2.7%
CC1(c2ccccc2)NC(=O)N(CC(=O)N2CCN(S(=O)(=O)c3cccc(C(F)(F)F)c3)CC2)C1=O (stereo not given),0.2,x,-7.0,0.669,-1.6,x,x
COc1ccccc1CNC(=O)c1ccccc1NS(C)(=O)=O,-38.9,x,14.0,0.714,-1.7,x,3.0%
O=C(O)CCCCn1c(SCC(=O)Nc2ccccc2C(F)(F)F)nc2ccsc2c1=O,1.5,x,-3.1,0.667,-2.2,-0.3,-3.8%
C=CCn1c(O)c(N=NC(=O)CNC(=O)c2ccco2)c2ccccc21,5.9,10.5,-22.9,0.708,-0.3,0.4,27.5%
O=C1NCCNC1(c1c[nH]c2ccccc12)C(F)(F)F (stereo not given),0.3,2.3,21.1,0.752,0.3,-0.7,4.6%
O=C(Nc1nccs1)C(c1ccccc1)N1CCCC1 (stereo not given),-0.3,0.4,-2.9,0.7,0.3,1.2,1.2%
O=C(NC1CCCCCCC1)C1CCC(CNc2c(N3CCCC3)c(=O)c2=O)CC1 (stereo not given),4.4,0.9,1.9,0.766,-0.9,0.3,12.1%
Cc1c(NC(=O)C(C)OC(=O)c2cccnc2Cl)c(=O)n(-c2ccccc2)n1C (stereo not given),0.0,-3.4,-4.0,0.706,3.8,1.3,-8.6%
O=C(NCCCN1CCCCC1)C1CCC(=O)N1CCc1ccccc1 (stereo not given),1.7,-2.1,8.4,0.764,-1.8,0.7,-0.9%
C(=Nc1ccc(N2CCOCC2)cc1)c1c[nH]c2ccccc12,-1.6,1.4,11.2,0.648,-0.6,0.5,x
CSc1ncccc1C(=O)Nc1ccc2nc(C)sc2c1,-0.8,x,0.2,0.718,2.2,x,1.3%
COc1cccc(OCc2cc(C(=O)N3CCN(C4CCCC4)CC3)no2)c1,0.4,2.4,-3.5,0.706,-0.8,-1.7,x
CN(C)S(=O)(=O)c1cccc(NC(=O)CSc2nnnn2-c2ccccc2)c1,1.4,-4.0,-10.2,0.651,-0.9,0.4,17.9%
CCOc1ccc(C(=O)N(CN2CCCC2=O)c2ccccc2)cc1,8.0,3.6,-3.3,0.653,3.6,0.1,-2.6%
O=C(/C(=C/c1ccccc1Cl)c1ccccc1)N1CCOCC1,2.0,-8.6,0.7,0.681,0.5,0.0,2.3%
O=c1ccc(Cl)n[nH]1,x,-0.2,1.2,x,-3.0,0.0,2.1%
CCCCNC(=O)COc1ccccc1[N+](=O)[O-],1.2,-0.8,-5.7,0.592,0.2,-0.8,30.1%

# Three compounds out of the list above, sorted by their value in LANA-H2B inh, falling:
compound | LANA-H2B inh
CCOc1ccc(C(=O)N(CN2CCCC2=O)c2ccccc2)cc1 | 3.6
O=C(NCCCN1CCCCC1)C1CCC(=O)N1CCc1ccccc1 (stereo not given) | -2.1
Cc1c(NC(=O)C(C)OC(=O)c2cccnc2Cl)c(=O)n(-c2ccccc2)n1C (stereo not given) | -3.4

# Fetched one by one from the entries so far:
SMILES,UCH37 DUB inh,LANA-H2B inh,Beta2AR agonist,Ecoli growth,HNF4A DNA FP,Bfl-1 A1 inh,Vif TR-FRET
C=CCn1c(O)c(N=NC(=O)CNC(=O)c2ccco2)c2ccccc21,5.9,10.5,-22.9,0.708,-0.3,0.4,27.5%
O=C(Nc1nccs1)C(c1ccccc1)N1CCCC1 (stereo not given),-0.3,0.4,-2.9,0.7,0.3,1.2,1.2%

# Other entries follow:
SMILES,UCH37 DUB inh,LANA-H2B inh,Beta2AR agonist,Ecoli growth,HNF4A DNA FP,Bfl-1 A1 inh,Vif TR-FRET
COc1cc(C=NNC(=O)c2ccccc2NS(=O)(=O)c2cccs2)cc(OC)c1O,10.3,-4.3,18.1,0.713,-0.9,1.5,x
O=[N+]([O-])c1ccc(Cn2cc(-c3cccc(C(F)(F)F)c3)nn2)cc1,3.4,-3.3,-9.1,0.713,-6.2,0.5,x
C=C(C)Cn1c(N)cc(=O)nc1SCC(=O)Nc1cccc(C(F)(F)F)c1,2.7,4.6,-3.3,0.719,3.3,-0.7,3.7%
COc1cc(C2C(C#N)=C(N)N(Nc3ccccc3)C3=C2C(=O)CC(C)(C)C3)ccc1OCc1ccccc1 (stereo not given),-3.7,0.3,4.6,0.717,-0.1,-0.6,-0.1%
CCN(CC)CCCNC(=O)c1cn(C)c(=O)c2c1c1ccccc1n2C,-89.5,-8.1,-2.5,0.66,-0.4,-0.8,-5.0%
Clc1cc(Cl)c(OCCCCn2cncn2)c(Cl)c1,1.3,-3.8,4.9,0.665,0.7,-0.9,x
Cc1cc(N2CCN(c3ccccc3)CC2)n2ncnc2n1,-0.4,4.0,-6.8,0.72,-0.8,-0.3,12.7%
CNC(=S)NNC(=O)CSCc1c(Cl)cccc1Cl,3.7,-6.7,9.0,0.685,-2.0,-1.4,2.8%
CC(C)(C)OC(=O)N[C@H](Cc1ccccc1)C(=O)N1CCC[C@@H]1C(=O)O,1.7,1.5,6.6,0.66,3.2,0.6,2.4%
Cc1ccc(S(=O)(=O)N2CCC(=O)CC2)cc1,5.2,-11.4,-1.3,0.69,1.7,0.3,x
